Assay outcomes: PubChem, Fisher Drug Discovery Resource Center
NPYLR7 ag: mosquito NPYLR7 agonism | actives 0.15% (n = 270,000) | HEK293T NPYLR7/Galpha15, GCaMP6s calcium fluorescence | activation, % at 10 µM; in the data active = activation above about 40%;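 note: 0% = vehicle and 100% = reference agonist at the receptor; some compounds past the cut are filed as inactive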
NPYLR7 ag max-min: further read-out of NPYLR7 ag, marked with its call; activation, %; measured here: Max-Min RFU normalised activation; some inactives read as strong as hits;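 span of the calcium signal over five minutes; 0% = vehicle and 100% = native peptide agonist; compound fluorescence can raise it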
Active calls of the source: *; & = joins results of further samples. These rows are one share of the data (hit frequency here may not be typical).

Results follow in this order: NPYLR7 ag, NPYLR7 ag max-min
- O=C(Nc1ccc(F)c(N2CCS(=O)(=O)CC2)c1)c1cc2ccccc2s1
    3, 1
- COc1nc(-c2ccncc2)nc2ccccc12
    -2, -6
- O=C(Nc1ccccc1Cl)c1cccnc1
    23, 30
- CCCCC(NC(=O)CCc1cc2c(n1-c1ccc3c(c1)OCO3)-c1ccccc1CC2)C(=O)OC (stereo not drawn)
    1, 0
- O=C(CSC(F)(F)F)N1CCCCC1c1ncc[nH]1 (stereo not drawn)
    -11, -10
- CCOc1ccc(C(=O)NCCn2ncc3c(=O)n(Cc4ccc(C)cc4)cnc32)cc1
    -5, -9
- OC(COc1ccc(Cl)cc1)CN(Cc1ccccc1F)C1CC1 (stereo not drawn)
    -3, -1
- COC(=O)CNC(=O)c1c(-c2ccccc2Cl)noc1C
    9, 15
- CN(C)C=Nc1ncnc2c1cnn2-c1ccc(C(F)(F)F)cn1
    3, -3
- CC(NC(=O)CNC(=O)CC1CCCCC1)c1ccncc1 (stereo not drawn)
    0, -1
- CC(=O)N1CCN(Cc2nc(-c3ccc(C(F)(F)F)cc3)no2)CC1
    15, 4
- NC(=O)c1c(NC(=O)CCNC(=O)c2ccco2)sc2c1CCC2
    3, 4
- CCc1c(C)nc2c(-c3ccc(OC)cc3)c(COC)[nH]n2c1=O
    -17, -23
- Cc1nc2nc(-c3ccccc3)nn2c(Sc2ccccc2N)c1C
    1, 25
- COCc1cc(C)nc(N/N=C\c2ccccc2F)c1C#N
    11, 8
- O=C1CCCN1C(=O)CSc1nnc(-c2cccc(Br)c2)o1
    0, -1
- O=c1c(Cl)cc(C(F)(F)F)cn1Cc1nnc2n1CCCCC2
    -1, -5
- CC(C)=CCN1C[C@@H](C(=O)O)C[C@H](C(=O)NCc2cccnc2)C1
    8, 6
- COC(=O)COC(=O)c1ccc(Oc2nc(N(C)C)nc(N(C)C)n2)cc1
    -2, -2
- CCOC(=O)C1=C(COC(=O)c2ccc([N+](=O)[O-])s2)NC(=O)NC1C (stereo not drawn)
    -4, -5
- Cc1ccc(N2CCN(C(=O)c3ccc(F)cc3)C(C)C2=O)c(C)c1 (stereo not drawn)
    -14, -10
- COc1cc(NC(=O)C(C2CCCC2)N2CCN(C(=O)c3ccc(C(F)(F)F)cc3)CC2)cc(OC)c1 (stereo not drawn)
    11, 15
- COc1cccc(CCC(=O)N2CCOC(CCc3ccccc3)C2)c1 (stereo not drawn)
    4, 1
- Cc1cc2nc(-c3ccc(NC(=O)c4cccc(F)c4)cc3)oc2cc1C
    -4, -9
- CN1N=C(C(N)=O)CCC1=O
    -20, -26
- Cc1ccc(C)c(OC(C)C(=O)Nc2c(C)nc3ccccn3c2=O)c1 (stereo not drawn)
    -3, -4
- COc1ccc(C)cc1CNCCc1nnc2ccccn12
    0, 0
- COCCN(C)CC1(c2ccnc(-c3cccc(N(C)C)c3)c2)CC1
    13, 34
- Cc1cccc(NC(=O)CNC(=O)CNCc2ccc(F)cc2)c1
    36, 37
- CC(CSc1ncccn1)Cn1c(N2CCCCC2)nc2c1c(=O)[nH]c(=O)n2C (stereo not drawn)
    -1, -5
- COc1ccc(NC(=O)c2ccc3nc(C(F)F)[nH]c3c2)cc1OC
    -1, -3
- Nc1nc2[nH]cc(CCc3ccc(C(=O)N[C@H](CCC(=O)O)C(=O)O)cc3)c2c(=O)[nH]1
    -7, -23
- Cc1cc2oc(=O)cc(COC(=O)C3CSC4(C)CCC(=O)N34)c2cc1C(C)C (stereo not drawn)
    1, 6
- CC(C)=NN=C(NN=C(C)C)NC(=O)Nc1ccc(C)cc1
    -2, 0
- CCc1cccc2c(C(CC(=O)N3CCC(Cc4ccccc4)CC3)c3cccc(C(F)(F)F)c3)c[nH]c12 (stereo not drawn)
    4, 11
- COc1ccc(C(=O)OCC(=O)NC(=O)NC2CCCC2)cc1
    9, 6
- CCC(C)NC(=O)c1cc(-c2ccccc2F)nc2cc(C(C)(C)C)nn12 (stereo not drawn)
    9, 6
- CC(=O)c1ccc2c(c1)OCCOCCOCCOCCOCCO2
    -2, -5
- CC(C)C[C@H](NC(=O)N1CCCCCC1)C(=O)N[C@H](Cc1cn(C)c2ccccc12)C(=O)N[C@H](Cc1ccccn1)C(=O)O
    -8, -16
- Cc1ccc(Cc2nsc(N3CCN(C(=O)c4ccc(Cl)cc4Cl)C(C)C3)n2)cc1 (stereo not drawn)
    -4, 2
- c1cncc(NCCNC2CSCCSC2)c1
    1, 0
- O=C(Nc1ccc(F)cc1)c1ccc(CSc2nnc(-c3ccncc3)n2Cc2ccccc2)cc1
    16, 22
- COc1cccc(CCNc2nc(C)nc3c2cnn3C)c1OC
    2, -3
- Clc1ccccc1OC1CCN(Cc2nc(-c3ccccc3)no2)CC1
    20&-1, 6&-4
- O=C(NCCc1ccccc1)C(C1CCCC1)N1CCN(C(=O)c2ccccc2F)CC1 (stereo not drawn)
    -2, 3
- CCCCSc1nc2c(c(=O)n1-c1ccc(C)cc1)SCC2
    -2, -2
- CCOc1cccc(C(=O)N2CCC(n3cnc4ccc(C)cc43)CC2)c1
    2, -4
- O=C(CN1C(=O)CNC1=O)N1CCC2(CC1)C(=O)Nc1ccccc12
    6, 4
- CN1C(=O)CC(C(=O)Nc2ccc(C(=O)O)cc2)SC1=Nc1cccc(F)c1 (stereo not drawn)
    2, 0
- COC(=O)c1sc(N(C)Cc2cnc(C)s2)nc1Cl
    5, 3
- COc1ccc(S(=O)(=O)NCC2CCN(Cc3cccs3)CC2)c(C)c1
    -8, -8
- CCCCCCc1ccc(C(=O)N(Cc2ccc(OS(=O)(=O)CC)cc2)C(C)C)cc1
    -6, -4
- O=C(Nc1nnc(SCCCOc2ccccc2)s1)c1cccc(Cl)c1
    -1, 9
- CC(NC(=O)c1cc(NC(=O)Nc2cccc3ccccc23)ccc1N1CCCC1)c1ccccc1 (stereo not drawn)
    24, 29
- O=C(CC1C(=O)NCCN1Cc1ccc(F)cc1Cl)NCCc1cccnc1 (stereo not drawn)
    16, 2
- COC1CCN(c2ccc(-c3nc(CCCc4ccccc4)no3)cn2)CC1
    1, 0
- C=CCc1c(C)c(C#N)c2nc3ccccc3n2c1NCCN1CCOCC1
    8, 0
- O=C(c1cccnc1Sc1ccc(Cl)cc1)N1CCN(Cc2cc(=O)c(OCc3ccc(C(F)(F)F)cc3)co2)CC1
    19, 7
- Cc1cc(-n2cccn2)ccc1CN1CCOCC(CN(C)C)C1 (stereo not drawn)
    -2, -11
- O=C(CCCCC1CCSS1)NCCNc1ccc([N+](=O)[O-])cn1 (stereo not drawn)
    -8, -14

Next part.
Results follow in this order: NPYLR7 ag, NPYLR7 ag max-min
- CC(=O)c1c(C)[nH]c(C(=O)N2CCCC(O)C2)c1C (stereo not drawn)
    -3, -4
- CC(=O)Nc1ccc(CC2CCN(C(=O)C(Cl)(Cl)Cl)CC2)cc1
    13, 20
- CNc1nc2cnc(Nc3cccc(Cl)c3)cc2n1Cc1ccco1
    7, 0
- C=CCn1c(=O)c2c(nc3n(-c4ccc(Br)cc4)c(C)c(C)n23)n(C)c1=O
    5, 3
- CCOC(=O)c1nn(-c2ccccc2C)c(=O)cc1N1CCN(CCO)CC1
    5, 2
- CC(C)N=C1NN=C(c2c(F)cccc2F)CS1
    -14, -16
- CCCNC(=O)c1cc(-c2ccccc2F)nc2cc(C(C)(C)C)nn12
    -2, 1
- CCOCCn1c(=O)c2c(nc3n2CCCN3c2ccc(OC)cc2)n(C)c1=O
    14, 9
- Cn1c(SCC(=O)NC2(C#N)CCCCC2)nc2sc3c(c2c1=O)CCCC3
    -2, -7
- CCOC(=O)C1=C(CC)NC2=C(C(=O)CCC2)C1c1ccc(Cl)cc1Cl (stereo not drawn)
    3, 3
- O=C(NCCCOc1cccc([N+](=O)[O-])c1)c1ccc2ccccc2c1
    -9, -12
- Cc1cc(C)n(C(C[N+](=O)[O-])c2cccc(Cl)c2)n1 (stereo not drawn)
    5, 0
- O=C(c1cn[nH]n1)N1CCN(C/C=C/c2ccccc2)CC1
    -1, -4
- O=C(c1cccc(F)c1)N(Cc1ccc(F)cc1)Cc1ccccc1OS(=O)(=O)c1ccc(F)cc1
    17, 9
- O=C(NCc1ccccc1)N1CCC(n2cc(-c3ccc(F)cc3)nn2)CC1
    4, 1
- O=C(NC1CCN(c2ccccc2C(=O)NCCc2cccs2)CC1)c1ccc(C(F)(F)F)cc1
    28, 36
- O=C(O)CCC(=O)N[C@H]1CO[C@H]2[C@@H]1OC[C@@H]2n1nnnc1Oc1ccc(-n2cncn2)cc1
    -8, -16
- CC(C)c1nc(CNC(=O)c2ccc(-c3cccnc3)nc2)no1
    -4, -6
- Cc1ncsc1CCCNS(=O)(=O)NCc1ccccc1
    18, 6
- CCCNC(=O)C(C)NC(=O)Nc1ccc(C)cc1C (stereo not drawn)
    -3, -2

Entries listed so far containing a furan ring, fused or not, in the order listed:
Results follow in this order: NPYLR7 ag, NPYLR7 ag max-min
- NC(=O)c1c(NC(=O)CCNC(=O)c2ccco2)sc2c1CCC2
    3, 4
- CNc1nc2cnc(Nc3cccc(Cl)c3)cc2n1Cc1ccco1
    7, 0

Looked up above.
Under NPYLR7 ag, CC(=O)Nc1ccc(CC2CCN(C(=O)C(Cl)(Cl)Cl)CC2)cc1 reads 13
Under NPYLR7 ag max-min, O=C(c1cccc(F)c1)N(Cc1ccc(F)cc1)Cc1ccccc1OS(=O)(=O)c1ccc(F)cc1 reads 9
Under NPYLR7 ag max-min, CCCNC(=O)C(C)NC(=O)Nc1ccc(C)cc1C (stereo not drawn) reads -2
Under NPYLR7 ag, Cc1ncsc1CCCNS(=O)(=O)NCc1ccccc1 reads 18

Other entries follow:
Results follow in this order: NPYLR7 ag, NPYLR7 ag max-min
- Cc1cc(NC(=O)c2csc(-c3ccc(Cl)cc3)n2)n[nH]1
    1, 1
- Cc1noc(C)c1S(=O)(=O)N1CCC(C(=O)N2CCCc3c(C(=O)O)cccc32)CC1
    -1, -2
- COC(=O)CCC(=O)N(Cc1ccco1)Cc1nc2cc(Cl)ccc2o1
    6, 6
- COc1ccc(CNS(=O)(=O)c2ccc(C)c(C)c2C)cc1
    6, 5
- Cc1cc(C)cc(OCC(=O)Nc2nc(CN3CCCCC3)cs2)c1
    3, 8
- O=C(NCCc1nnc2ccccn12)c1cc2c(s1)CCCCCC2
    2, 7
- O=c1oc2ccccc2cc1C1=NN(c2ccccc2)C(c2ccccc2)C1 (stereo not drawn)
    -23, -28
- O=S(=O)(c1ccc(S(=O)(=O)N(Cc2ccccc2F)C2CC2)cc1)N1CCCC1
    -1, -4
- CC(C)Oc1nc(-c2ccc(C(F)(F)F)cc2)n(-c2ccc(NC(=O)CSc3ccccc3)cc2)n1
    -8, -8
- CC(C)C(=O)Nc1ccc(SCC(=O)N(C(C)C)C(C)C)nn1
    3, 2
- C#CCn1c(=NC(=O)c2ccnn2CC)sc2cccc(F)c21
    6, 7
- Cc1cccc(COCC2CN(C(=O)c3cccc(C#N)c3)CCO2)c1 (stereo not drawn)
    22, 27
- O=C(NCc1ccncc1)c1ccc(CSc2nc(N3CCN(Cc4ccccc4)CC3)cc(C(F)(F)F)n2)o1
    17, 15
- O=C(OC1CCCCC1)C1CCCN(C2=NS(=O)(=O)c3ccccc32)C1 (stereo not drawn)
    5, 4
- COc1ccccc1CN1CCn2nc(C(=O)NC3CCCc4ccccc43)cc2C1=O (stereo not drawn)
    22, 7
- O=C(NC1CCN(c2ccccc2C(=O)NCC2CCCCC2)CC1)c1ccc(Cl)cc1Cl
    -2, -1
- C=CCCC(C=C)S(C)(=O)=O (stereo not drawn)
    -1, -6
- CCOC(=O)C1CCCN(C(=O)c2ccc(CSc3nc(COC)cc(N4CCN(c5ccccc5Cl)CC4)n3)cc2)C1 (stereo not drawn)
    7, 11
- Cc1ccccc1C(=O)N(CC(=O)N(Cc1cccn1Cc1ccccc1)C1CC1)C1CCCCC1
    13, 18
- COC(=O)N1CCCC(C(=O)NC(C)(C)Cc2ccccc2C)C1 (stereo not drawn)
    1, -3

A stretch of the results above:
Results follow in this order: NPYLR7 ag, NPYLR7 ag max-min
- C#CCn1c(=NC(=O)c2ccnn2CC)sc2cccc(F)c21
    6, 7
- Cc1cccc(COCC2CN(C(=O)c3cccc(C#N)c3)CCO2)c1 (stereo not drawn)
    22, 27
- O=C(NCc1ccncc1)c1ccc(CSc2nc(N3CCN(Cc4ccccc4)CC3)cc(C(F)(F)F)n2)o1
    17, 15
- O=C(OC1CCCCC1)C1CCCN(C2=NS(=O)(=O)c3ccccc32)C1 (stereo not drawn)
    5, 4
- COc1ccccc1CN1CCn2nc(C(=O)NC3CCCc4ccccc43)cc2C1=O (stereo not drawn)
    22, 7
- O=C(NC1CCN(c2ccccc2C(=O)NCC2CCCCC2)CC1)c1ccc(Cl)cc1Cl
    -2, -1
- C=CCCC(C=C)S(C)(=O)=O (stereo not drawn)
    -1, -6

Next part
Results follow in this order: NPYLR7 ag, NPYLR7 ag max-min
- Cc1nc2ccccn2c(=O)c1NC(=O)c1ccc(-c2ccccc2)cc1
    3, 0
- CCOC(=O)C1CCN(c2nc3c(S(=O)(=O)c4ccc(C)c(C)c4)nnn3c3ccsc23)CC1
    9, 8
- COc1cccc2c1OCC(C(=O)N(Cc1nccn1C)C(C)C)C2 (stereo not drawn)
    3, 2
- O=C(c1ccc(CSc2nc(Cl)cc(N3CCN(C/C=C/c4ccccc4)CC3)n2)cc1)N1CCOCC1
    -6, -5
- O=C(NCCc1ccco1)c1cc(-c2ccccc2)n[nH]1
    -3, -1
- CCN(C(=O)CCN1CCSC1=O)C12CC3CC(CC(C3)C1)C2
    9, 5
- Cc1c[nH]c(Cn2cc3ncccc3c2O)c(C)c1=O
    1, 0
- Cc1ccc(C2=NOC(C(=O)NC(Cc3ccccc3)C(=O)NC3CC3)C2)cc1 (stereo not drawn)
    25, 35

Complete entries from above. Order of screens: NPYLR7 ag	NPYLR7 ag max-min
O=C(NCCc1ccco1)c1cc(-c2ccccc2)n[nH]1 across the screens: -3	-1
CCN(C(=O)CCN1CCSC1=O)C12CC3CC(CC(C3)C1)C2 across the screens: 9	5
